Screening data (PubChem)
gsp ag: agonists of gsp mutant (McCune-Albright syndrome) | gsp mutant cells, cAMP HTRF, 30 min; control for the full effect not named in the record | AID 624287 | actives 0.13% (n = 340,000) | Potency, µM (highest dose often 76.9 µM), for inactives: top-dose activation (cAMP increase), most hits filed as activators; active = well fitted activation curve with a large enough effect; inconclusive = small, poorly fitted or top-dose-only effect, or another doubt; inactive = no such curve, though single readings can be large or run the other way; cell line not stated here;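 also: phosphodiesterase inhibitor Ro 20-1724 added with compounds to block cAMP breakdown; potency is read from the fitted curve at half-maximal effect; nearly all actives have a fitted effect of over 60% in size; about a fifth of the inactives were tested at one dose only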
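Cells in DMEM/10% FBS with G418 were pretreated with compounds in DMSO plus […] (300 uM stock) for 30 min at 37C. cAMP was measured by HTRF (cAMP-d2 plus anti-cAMP antibody-K) after 30 min at room temperature.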
Menin MLL FP FL: inhibitors of human menin-MLL interaction, wild-type MLL peptide; AID 1766; Fluorescence polarization, fluorescein-MLL peptide displacement from menin; 290,000 tested, under 10 active; FP activity change, % at 61.4 µM; inconclusive = falling polarisation curve, or a change in total fluorescence; inactive = total fluorescence flat and polarisation flat or rising; no compound was filed as active; the % refers to the polarisation; negative = inhibition;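 also: % of control where 0% means no effect; inhibitors lower the polarisation; unlabelled MLL peptide was the positive control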
ClpP mod: qHTS Assay for Activators of ClpP; purified B. subtilis ClpP, FRET peptide cleavage, 20 min; Potency, µM (doses to about 57.5 µM), for inactives: top-dose activity change, negative = active; AID 651965, 2013; actives 1.9% (n = 340,000); ATP-dependent Clp protease proteolytic subunit (Bacillus subtilis (strain 168)), P80244; active = well fitted falling curve with a large enough effect; inconclusive = small, poorly fitted or top-dose-only effect; inactive = no such curve, though single readings can be large or run the other way; also: potency is read from the fitted curve at half-maximal effect; the source files actives as falling curves though it sought activators and does not explain the sign; nearly all actives have a fitted effect of over 65% in size; many hits overshoot -100%
Target sequence (P80244 whole entry, looked up): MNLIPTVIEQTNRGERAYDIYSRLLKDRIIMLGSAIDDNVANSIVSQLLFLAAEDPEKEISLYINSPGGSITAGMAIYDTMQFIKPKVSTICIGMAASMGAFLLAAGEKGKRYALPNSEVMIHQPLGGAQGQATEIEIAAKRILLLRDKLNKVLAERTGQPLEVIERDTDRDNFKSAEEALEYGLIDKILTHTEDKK
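FRET quenching reversal measured ClpP activation: 10 microg/mL B. subtilis ClpP at pH 8 with the FRET-FV decapeptide, read at 430 nm after 320 nm excitation. The 20-min minus 0-min signal was scaled between DMSO/no-enzyme wells and ADEP (5.8 microM final).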
D2 PAM: human D2 receptor positive allosteric modulation | DiscoveRx D2 beta-arrestin cells, luminescence, 90 min; 100% = 57 uM dopamine signal | potentiation, % (concentration not given with the values) | actives 0.23% (n = 360,000); active = potentiation of 50% or more; inconclusive = 30% to 50%; inactive = 30% or less;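 also: compound concentration not given in the record; tested on top of an EC20 dose of dopamine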
Target sequence (P14416 whole entry, looked up): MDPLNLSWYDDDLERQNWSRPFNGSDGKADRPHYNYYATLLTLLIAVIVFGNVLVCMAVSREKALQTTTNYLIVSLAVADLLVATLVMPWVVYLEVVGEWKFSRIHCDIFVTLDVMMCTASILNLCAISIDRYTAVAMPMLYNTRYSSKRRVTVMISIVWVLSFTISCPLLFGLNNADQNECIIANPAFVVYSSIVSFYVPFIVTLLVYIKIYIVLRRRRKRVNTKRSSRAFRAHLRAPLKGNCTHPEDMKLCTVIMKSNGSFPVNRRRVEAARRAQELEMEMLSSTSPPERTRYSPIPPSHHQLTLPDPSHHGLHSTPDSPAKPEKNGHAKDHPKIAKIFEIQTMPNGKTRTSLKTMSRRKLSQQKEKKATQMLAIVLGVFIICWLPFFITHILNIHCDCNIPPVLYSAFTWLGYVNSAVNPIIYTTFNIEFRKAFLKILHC
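D2 cells co-treated with compound plus 50 nM dopamine (EC20) for 90 min at 37 deg C to detect potentiation. Beta-arrestin recruitment was read as enzyme-fragment luminescence after 1 h at ambient temperature. Full response was set by 57 uM dopamine.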
TRPV1 potentiator: human TRPV1 potentiation | actives 0.02% (n = 320,000) | TRPV1-expressing cells, Fluo-8 calcium influx, capsaicin EC20 potentiation; host cell line not named in the record; control for the full effect not named in the record | potentiation, % at 8.33 µM; active means potentiation above 80%; inconclusive means 30% to 80%; inactive means below 30%; also: 0% is about no effect
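Fluo-8 calcium influx in TRPV1-expressing cells, kinetic read (ex 480/em 520 nm). Compound added and read 3 min for agonist activity, followed by capsaicin at EC20 final and 2 min further read for enhancement.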
gsp antagonist: gsp mutant antagonism; gsp-mutant cells, cAMP HTRF, 30 min; control for the full effect not named in the record; Potency, µM (titrated, usually from 76.9 µM), for the others: at the highest dose activity change, negative = inhibition, hits mostly inhibitors; actives 0.4% (n = 340,000); AID 624288; active = falling curve of any shape with a large fitted effect; inconclusive = falling curve, mostly with a smaller effect; inactive = flat or rising curve; cell line not stated here;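 also: intracellular cAMP measured with PDE inhibitor Ro 20-1724 present during compound exposure; potency is read from the fitted curve at half-maximal effect; % is scaled to controls: 0 for no effect and ±100 for the full control effect; nearly all actives have a fitted effect of over 65% in size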
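HTRF cAMP read-out (cAMP-d2 plus anti-cAMP antibody-K in lysis buffer, 30 min RT). Before lysis, cells are exposed to compounds with […] for 30 min at 37C in DPBS containing Ca/Mg, BSA and Tween 20.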
Sfp inh: Sfp phosphopantetheinyl transferase inhibition; Q9F4F7; Biochemical Sfp PPTase activity, qHTS; Potency, µM, without a hit: max response, negative = inhibition, most hits filed as inhibitors; actives 3.5% (n = 310,000); AID 1490; active = well fitted inhibition curve with a large enough effect; inconclusive = small, poorly fitted or top-dose-only effect, or another doubt; inactive = no such curve, though single readings can be large or run the other way;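 also: the enzyme is Sfp with the accession as filed and its product quenches rhodamine fluorescence; potency is read from the fitted curve at half-maximal effect; 0% = enzyme reaction without inhibitor and -100% = no enzyme wells; top concentration of the series not given in the record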
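Reaction rates are the 30-min fluorescence difference (ex 525, em 598 nm) in wells containing 15 nM Sfp, 5 uM rhodamine-CoA and 12.5 uM BHQ-2-YbbR at pH 7.6 with 10 mM MgCl2.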
* marks the source's active call; other numbers are inactive results; [ ] = remark or other dose. Compounds as they come; 5.1% or so of the library scored in one or more.

CN(CC(=O)Nc1ccccc1Br)C(=O)COc1cccc2c1OC(C)(C)C2 was read as gsp ag -26.9%, ClpP mod 0.9%, D2 PAM -20.5, TRPV1 potentiator inconclusive and gsp antagonist -8.4%.
Screening CCOC(=O)C(C)n1cnc2scc(-c3ccc(C)cc3)c2c1=O (stereo not given) returned gsp ag 19.8%, Menin MLL FP FL -2.3, ClpP mod -0.3%, D2 PAM -43.9, TRPV1 potentiator 5.3, gsp antagonist -8.1% and Sfp inh 13.8%.
`O=C(Nc1c(C(=O)O)oc2ccc(Br)cc12)c1ccccc1` gave gsp ag -14.4%, Menin MLL FP FL 0.0, ClpP mod -0.2%, D2 PAM -3.1, gsp antagonist inconclusive and Sfp inh -4.1%.
For CCOc1ncccc1C(=O)Nc1ccccc1C(=O)NCc1ccc2c(c1)OCO2 the results were gsp ag -34.6%[inhibitor], Menin MLL FP FL 1.2, ClpP mod 257.3%, D2 PAM 9.1, TRPV1 potentiator -17.9, gsp antagonist 8.7% and Sfp inh -7.4%.
For CCc1ccc(NC(=O)Nc2cnccn2)cc1 the results were gsp ag 11.5%, Menin MLL FP FL -2.3, ClpP mod -4.6%, D2 PAM -18.2, TRPV1 potentiator 4.8, gsp antagonist 7.6% and Sfp inh -0.4%.
For CN1CCN(C(=O)C2(NC(=O)NCc3ccccc3)CCCCC2)CC1 the results were gsp ag 16.6%, Menin MLL FP FL -0.6, ClpP mod -1.8%, D2 PAM -7.8, TRPV1 potentiator 13.1, gsp antagonist 12.4% and Sfp inh 4.6%.
Cc1ccc(C(=O)Nc2cccc(S(=O)(=O)N3CCCC3)c2)o1 was read as gsp ag -20.8%, ClpP mod -2.9%, D2 PAM -2.8, TRPV1 potentiator -4.8 and gsp antagonist -20.2%.
`CCCCCCN1C(=O)C(O)=C(C(C)=O)C1c1ccccc1[N+](=O)[O-]` (stereo not given) gave gsp ag -2.8%[15.4 µM], Menin MLL FP FL -1.9, D2 PAM -10.4, TRPV1 potentiator 18.9, gsp antagonist -17.7% and Sfp inh inconclusive.
O=C(COC(=O)CNC(=O)c1ccccc1F)NC12CC3CC(CC(C3)C1)C2 was read as gsp ag -43.0%[inhibitor], ClpP mod -0.3%, D2 PAM -4.3, TRPV1 potentiator -11.8 and gsp antagonist 9.1%.
`O=C(Nc1cc(Cl)cc(Cl)c1)c1coc(=O)c(Br)c1` gave gsp ag 7.5%[15.4 µM], Menin MLL FP FL inconclusive, D2 PAM -5.8, TRPV1 potentiator 6.6, gsp antagonist 3.7% and Sfp inh -14.9%.
`Cc1ccc(-n2ncc3c(=O)n(CC(=O)OCc4ccccc4)cnc32)cc1` gave gsp ag -1.6%, Menin MLL FP FL 3.6, ClpP mod -6.7%, D2 PAM 0.3, gsp antagonist -4.2% and Sfp inh 2.2%.
Screening CCC(C)[C@H](NC(=O)[C@@H]1Cc2ccccc2CN1)C(=O)NCc1ccc(C)cc1 (stereo not given in full) returned gsp ag 9.5%, ClpP mod 0.7% and D2 PAM -19.5.
Screening CC(C)C[C@H](NC(=O)NCc1ccc(F)cc1)C(=O)O returned gsp ag 9.1%[15.4 µM], Menin MLL FP FL -1.0, D2 PAM 0.9, TRPV1 potentiator 2.5, gsp antagonist 9.5% and Sfp inh 14.0%.
For Cc1cc2oc(C(=O)NCC(c3ccco3)N3CCCC3)c(C)c2cc1C (stereo not given) the results were gsp ag 6.9%, ClpP mod -0.9% and D2 PAM -41.9.
For CCCCS/C(=C(/C#N)C(N)=O)c1cc2c([nH]1)CCCC2 the results were gsp ag 6.5%, Menin MLL FP FL -0.1, ClpP mod -1.8%, D2 PAM -17.4, TRPV1 potentiator inconclusive, gsp antagonist -13.3% and Sfp inh inconclusive.
Cc1nn(-c2ccccc2)c(N2CCCC2)c1/C=N/NC(=O)c1cc2ccccc2cc1O was read as gsp ag 0.0%, Menin MLL FP FL 18.3, ClpP mod -20.0%, D2 PAM -10.2, TRPV1 potentiator 26.5, gsp antagonist inconclusive and Sfp inh 3.5%.
For O=C(Nc1ccc(C(=O)N2CCCCC2)cc1)c1ccc([N+](=O)[O-])cc1 the results were gsp ag -10.2%, Menin MLL FP FL -2.0, ClpP mod 0.6%, D2 PAM 16.8, TRPV1 potentiator -24.3, gsp antagonist 3.9% and Sfp inh 4.6%.
`COc1ccccc1CC(=O)Nc1ccccc1C(=O)O` gave gsp ag -29.1%, Menin MLL FP FL -0.2, ClpP mod -17.8%, D2 PAM -13.6, TRPV1 potentiator -2.9, gsp antagonist inconclusive and Sfp inh 8.7%.
`O=C(O)c1ccc(N/N=C/C=C/c2ccc([N+](=O)[O-])o2)cc1` gave gsp ag -6.0%[15.4 µM], Menin MLL FP FL inconclusive, D2 PAM -22.1, TRPV1 potentiator 16.7, gsp antagonist inconclusive and Sfp inh inconclusive.
Screening NC(=S)N/N=C/c1coc2ccc(F)cc2c1=O returned gsp ag 2.9%[15.4 µM], Menin MLL FP FL 0.0, ClpP mod -6.9%, D2 PAM -3.8, TRPV1 potentiator -11.9, gsp antagonist -2.3% and Sfp inh 17.5%.
`CS(=O)(=O)c1cccc(-c2nnc(NC(=O)CCS(=O)(=O)c3ccccc3)o2)c1` gave gsp ag 7.3%[15.4 µM], D2 PAM 0.1, TRPV1 potentiator -0.8 and gsp antagonist -0.7%.
Screening Brc1ccc(CNCc2cccs2)cc1 returned gsp ag 6.0%, ClpP mod 1.2%, D2 PAM -30.5, TRPV1 potentiator -16.3, gsp antagonist 11.5% and Sfp inh 4.3%.
CCOC1(c2ccccc2)OC(=O)c2ccccc21 (stereo not given) was read as gsp ag 1.2%[15.4 µM], Menin MLL FP FL 8.5, ClpP mod 0.0%, D2 PAM -4.0, TRPV1 potentiator -1.3, gsp antagonist -12.5% and Sfp inh -3.0%.
`COCCNC(=O)c1onc(CSc2ccc(F)c(F)c2)c1C(=O)NCCOC` gave gsp ag inconclusive, ClpP mod -0.1%, D2 PAM -6.3 and gsp antagonist -0.4%.
O=S(=O)(NC(CO)Cc1ccccc1)c1ccc(Br)cc1F (stereo not given) was read as ClpP mod 0.8%, D2 PAM -1.6 and gsp antagonist 3.9%.
O=C(COC(=O)[C@H](Cc1ccccc1)NC(=O)c1ccco1)Nc1ccccc1 was read as gsp ag -25.7%, ClpP mod -2.1%, D2 PAM -2.0 and gsp antagonist inconclusive.
Screening O=C(c1cc(-c2ccccc2)on1)N1CCCC1 returned gsp ag -25.4%, Menin MLL FP FL 0.5, ClpP mod -1.8%, D2 PAM -11.5, TRPV1 potentiator -12.8, gsp antagonist -1.7% and Sfp inh 0.2%.
For CC1(CC(=O)O)C(=O)N=C2C=CC=CN21 (stereo not given) the results were gsp ag 3.2%, Menin MLL FP FL -4.4, ClpP mod inconclusive, D2 PAM 1.4, TRPV1 potentiator -9.3, gsp antagonist 3.2% and Sfp inh -1.3%.
`O=C(CCC1CCCC1)N1CCN(S(=O)(=O)Cc2ccccc2)CC1` gave gsp ag -2.8%, Menin MLL FP FL -0.6, ClpP mod 0.0%, D2 PAM 13.2, TRPV1 potentiator -23.2, gsp antagonist -13.6% and Sfp inh 3.5%.
CCCc1cc(=O)[nH]c2nnc(SCC(=O)NC3CCCCC3)n12 was read as gsp ag -0.9%, ClpP mod -11.4%, D2 PAM 1.3, TRPV1 potentiator 0.3 and gsp antagonist 5.9%.
For CC1CCN(C(=O)c2ccc3c(=O)n4c(nc3c2)CCCCC4)CC1 the results were gsp ag -48.2%[inhibitor], Menin MLL FP FL 1.6, ClpP mod 0.3%, D2 PAM -3.2, TRPV1 potentiator -4.8, gsp antagonist 1.0% and Sfp inh 9.1%.
Screening Cc1cc(C)nc(Nc2n[nH]c(-c3ccccc3Cl)n2)n1 returned gsp ag inconclusive, Menin MLL FP FL -0.6, ClpP mod 2.7%, D2 PAM -15.1, TRPV1 potentiator 10.1, gsp antagonist 0.2% and Sfp inh -1.0%.
CCOc1ccccc1-n1c(=S)sc2c(=O)n(-c3ccccc3)c(=S)[nH]c21 was read as gsp ag inconclusive, Menin MLL FP FL -2.2, D2 PAM -2.5, TRPV1 potentiator -10.2, gsp antagonist -9.3% and Sfp inh 4.2%.
`Nc1ccc2nc(-c3cc(Cl)c(N)c(Cl)c3)[nH]c2c1` gave gsp ag inconclusive, Menin MLL FP FL -1.5, ClpP mod -5.2%, D2 PAM -0.5, TRPV1 potentiator 24.9, gsp antagonist -0.4% and Sfp inh inconclusive.
Screening CCNC(=S)NNC(=O)c1cc(-c2ccccc2C)nc2ccccc12 returned gsp ag -22.8%, Menin MLL FP FL -0.2, ClpP mod 32.0%, D2 PAM -21.5, TRPV1 potentiator -2.0, gsp antagonist -13.7% and Sfp inh -2.7%.
For Cc1ccc(-c2nnn(CC(=O)N(c3cccc(O)c3)C(C(=O)NC(C)(C)C)c3cccs3)n2)o1 (stereo not given) the results were gsp ag -7.4%, Menin MLL FP FL 3.7, ClpP mod -0.6%, D2 PAM -6.0, TRPV1 potentiator 4.5, gsp antagonist -8.7% and Sfp inh 4.0%.
COC(=O)c1ccc(OCC(O)CN2CCc3cc(OC)c(OC)cc3C2c2ccccc2)cc1 (stereo not given) was read as gsp ag 6.6%[15.4 µM], Menin MLL FP FL 1.2, D2 PAM -6.2, TRPV1 potentiator 12.0, gsp antagonist inconclusive and Sfp inh 0.3%.
`CN(C)CC(C(=O)c1ccccc1)c1ccccc1` (stereo not given) gave gsp ag 5.5%, Menin MLL FP FL 7.6, ClpP mod -3.9%, D2 PAM -45.6, TRPV1 potentiator -1.4, gsp antagonist 28.0% and Sfp inh -13.8%.
`Nc1cccc(-c2cc(-c3ccccc3)nc(-c3cccc(N)c3)n2)c1` gave gsp ag -2.2%[15.4 µM], Menin MLL FP FL 12.1, ClpP mod -3.1%, D2 PAM 5.5, TRPV1 potentiator 24.6, gsp antagonist -10.7% and Sfp inh 27.2%.
COc1ccc(COC(=O)C2=C(C)NC(=O)NC2c2ccc(F)cc2)cc1 (stereo not given) was read as gsp ag 12.6%[15.4 µM], Menin MLL FP FL 5.5, ClpP mod -2.1%, D2 PAM inconclusive, TRPV1 potentiator 26.3, gsp antagonist -6.7% and Sfp inh 17.5%.
